NPYLR7 agonist – agonists of mosquito NPYLR7 receptor, primary screen, cell-based, Aedes aegypti, calcium fluorescence, mosquito biting behavior; 0.15% of 270,000 active; activation, % at 10 µM; HEK293T NPYLR7/Galpha15, GCaMP6s calcium fluorescence; in the data active = activation above about 40%;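 also: 0% = vehicle and 100% = reference agonist at the receptor; some compounds past the cut are filed as inactive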
NPYLR7 agonist max-min – second read-out of NPYLR7 agonist, no call of its own (marks repeat the call); activation, %; measured here: Max-Min RFU normalised activation; some inactives read as strong as hits;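 span of the calcium signal over five minutes; 0% = vehicle and 100% = native peptide agonist; compound fluorescence can raise it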
* hit, by the source's call; & = joins results of further samples. These rows are one share of the data; count on the stated rates, not on these rows.

structure,NPYLR7 agonist,NPYLR7 agonist max-min
O=C(Cn1nc(-c2ccccc2)c2ccccc2c1=O)Nc1cccc(O)c1,8.9,4.8
Cc1cccc(CO[C@]2(C(=O)NCCN(C)C)CC(OCc3cccc(Cl)c3)[C@@H]3OC(C)(C)O[C@@H]3C2)c1 (some centres not stated),9.1,15.4
CC(=O)c1csc(NC(=O)CCCc2ccc(C)cc2)n1,-3.8,-3.8
C=CCN(CC(=O)Nc1cc(C)no1)Cc1cccc(C#N)c1,-0.1,-2.0
O=C(c1cncc(N2C[C@@H]3[C@H](C2)[C@H]2CC[C@@H]3O2)n1)N1CCOCC1,5.3,-0.6
Fc1ccc(-c2noc3nc(NC4CCc5ccccc54)ccc23)cc1 (configuration not stated),9.6,3.1
Cc1nn(C(C)C(=O)NC2CCCCCC2)c(=O)c2cc3occc3n12 (configuration not stated),2.6,3.5
COCCNC(=O)c1cc(NC(=O)Nc2cc(OC)cc(OC)c2)ccc1N1CCC(C)CC1,-4.2,0.1
Cn1c(CCC(=O)NC2CCC(n3cnnc3)CC2)nc2cccnc21 (configuration not stated),18.6,13.4
C=CC(C)(O)CN(CCOC)Cc1nc2scc(-c3ccc(C)cc3C)c2c(=O)[nH]1 (configuration not stated),-8.6,-0.5
O=C(CSc1nccc(=O)[nH]1)c1ccc(Cl)s1,4.6,2.3
c1cncc(-c2nc(NCc3ccccc3CN3CCCC3)c3ccccc3n2)c1,-2.9,-0.3
CCCCN1N=C(C)Cn2c1nc1c2c(=O)n(CCCC)c(=O)n1C,-3.3,-7.2
Cc1ccc(C)c(NC(=O)CC2SC(=NCC3CCCO3)NC2=O)c1 (configuration not stated),18.4,19.4
CCc1ccc2nc(NC(=O)CC3CCS(=O)(=O)C3)sc2c1 (configuration not stated),6.1,2.9
CCCCCN1N=C(C)Cn2c1nc1c2c(=O)n(C)c(=O)n1C,-0.9,5.1
Cc1cccc(-n2c(-c3cc(-c4ccccc4)nc4ccccc34)n[nH]c2=S)c1,-7.9,-17.4
O=C(CSc1ccc2c(c1)OCCO2)NCc1ccc(N2CCCC2)nc1,3.1,1.9
COc1ccc(CCC(=O)Nc2c(C)nc3sc(C)c(C)n3c2=O)cc1,9.1,5.4
O=C(CN1C(=O)CCC1=O)Nc1nnc(-c2ccc(Cl)s2)o1,-3.4,-6.0
O=[N+]([O-])c1cnc(NCc2cccnc2)c([N+](=O)[O-])c1,-1.6,-2.2
COc1ccc(-c2nc3ccc(C)cn3c2NC(=O)c2ccc(C)cc2)cc1OC,-4.3,0.5
C=CCn1c(CO)nc2ccccc21,1.8,8.4
O=C(CN1CCN(c2ccc([N+](=O)[O-])c3cnccc23)CC1)NCc1ccccc1,-7.4,-9.4
CC(C)CCCC1CN(S(=O)(=O)c2ccsc2)CCO1 (configuration not stated),-3.1,-6.5

An excerpt of these results, with values under each structure.
Order of results – NPYLR7 agonist, NPYLR7 agonist max-min
> CCc1ccc2nc(NC(=O)CC3CCS(=O)(=O)C3)sc2c1 (configuration not stated)
 : 6.1, 2.9
> CCCCCN1N=C(C)Cn2c1nc1c2c(=O)n(C)c(=O)n1C
 : -0.9, 5.1

Carrying on.
structure,NPYLR7 agonist,NPYLR7 agonist max-min
CCCCC1CCC(C(=O)OCC(=O)NC(N)=O)CC1 (configuration not stated),4.1,4.4
CC(C)c1nnc(SCC(=O)Nc2sccc2C(N)=O)n1C1CC1,14.1,6.7
CC1=NN(c2ccc(C(=O)NCc3cc4ccccc4[nH]3)cc2)CC1,1.1,-0.7
Cc1[nH]cnc1-c1nccn1Cc1cnn(Cc2ccccc2)c1,1.3,-5.0
CCn1nnnc1NCc1ccsc1,2.7,2.8
CC(C1CC1)N(C(=O)c1ccc([N+](=O)[O-])cc1)c1ccccc1 (configuration not stated),-7.2,-10.3
COc1ccc2c(c1)C1(SCCN1C(=O)NC(C)C)C(=O)N2Cc1ccc(C(F)(F)F)cc1 (configuration not stated),-3.8,4.1
CCOC(=O)Cn1ncc2c1CCN(C(=O)C1=NNC(=O)CC1)C2,-0.6,29.9
CC1SC(=S)NN1c1ccccc1 (configuration not stated),0.6&5.9,-1.7&4.7
Cc1cc(C)c2nc(NNC(=O)c3ccc(N(C)C)cc3)sc2c1,3.9,-0.7
O=c1[nH]c(Nc2ccccc2)nnc1Cc1ccccc1,-4.9,-5.5
CCOC(=O)C1(Cc2ccccc2)CCCN(Cc2nc[nH]c2C)C1 (configuration not stated),26.3,18.9
Cc1ccc(S(=O)(=O)n2ncc(Sc3ccc(C(C)C)cc3)c(Cl)c2=O)cc1,8.2,11.0
COc1ccc(C)cc1NC(=O)Cn1c(C)csc1=O,-7.5,-10.1
CCC(C)NC(=O)CSc1n[nH]c(C=Cc2cccs2)n1 (configuration not stated),10.0,12.9
COc1ccc(NC(=O)CCC2CCCN(C(=O)c3cnc4ccccc4c3)C2)c(C)c1 (configuration not stated),5.7,2.0
Cc1ccc(C(NC(=O)Cc2ccccn2)c2cccnc2)cc1C (configuration not stated),6.5,3.3
CC(=O)N(C[Si](C)(F)F)C(C)c1ccccc1 (configuration not stated),-2.2,-3.6
NC(=O)c1cnc2n1CCN(C(=O)c1ccccc1-c1ccccc1)C2,9.6,7.9
Cc1ccc(NC(=O)C(C2CCCC2)N2CCN(C(=O)c3cccc(Br)c3)CC2)cc1F (configuration not stated),-2.4,-1.5
O=C(c1cccnc1Cl)N1CC(=O)N2CCc3cc(F)ccc3C2C1 (configuration not stated),-11.2,-1.8
COc1ccccc1-c1ccc(C(=O)N2CCN(C)C(C)C2)cc1 (configuration not stated),-3.7,-4.7
CCc1nnc(NC(=O)CC23CC4CC(CC(Br)(C4)C2)C3)s1,-1.9,-2.3
CCc1nc(CN2CCN(c3ncnc4c(C)csc34)CC2)c(C)[nH]1,9.8,7.0
O=C(CNC(=O)c1ccc2c(c1)OCCO2)N=Nc1c(O)n(Cc2ccccc2)c2ccccc12,0.3,-8.5

Continued.
structure,NPYLR7 agonist,NPYLR7 agonist max-min
O=S1(=O)CCC(N2CCN(c3nc(C(F)(F)F)nc4ccccc34)CC2)C1 (configuration not stated),-0.5,14.5
Fc1ccc(NN=C2CCCc3ccccc32)c(F)c1,2.9,2.7
CCOC(=O)CN(C)C(=O)c1cn(CCCc2ccccc2)nn1,-2.7,-4.4
CNC(=O)NC(=O)CN1C(=O)NC2(CCC(C)CC2)C1=O (configuration not stated),2.4,7.6
Cc1ccc(C(=O)Nc2cccc(NC(=O)CNC(=O)N(C)C)c2)cc1,-1.1,1.9
Cc1ccc2[nH]c(C)c(CC(=O)n3ccccc3=NC(C)C)c2c1,1.1,0.0
O=C(O)C1COC2(CCN(C(=O)c3ccccc3Cl)CC2)N1C(=O)c1ccco1 (configuration not stated),0.5,14.3
Cc1ccc(CN(CCN2CCOCC2)Cc2ccc(C(O)(c3cccc(F)c3)c3cccc(F)c3)o2)s1,0.5,-3.3
COc1ccc(CCNC(=O)c2c(C)noc2-c2ccc(OC(F)(F)F)cc2)cc1OC,21.5,10.6
CCn1c(=O)c(C)nc2cc(C(=O)NC3CCOc4ccccc43)ccc21 (configuration not stated),5.9,3.7
COCc1ccccc1NCc1cn2c(C)cccc2n1,1.9,-0.2
CN(C)c1ccc(NC(=O)C2CCCC2)cc1CN(CC1CCCO1)C(=O)c1ccccc1Cl (configuration not stated),-6.4,3.8
CC(C)S(=O)(=O)NC(=O)C1(C)CCN1C(=O)c1ccc(C2CCCCC2)cc1 (configuration not stated),4.7,5.4
CC(Cn1cnc2ccccc21)C(=O)NN=Cc1cccc(O)c1 (configuration not stated),14.8,4.8
CCOC(=NCc1ccccn1)NC(=O)c1ccc2c(c1)OCO2,-9.7,0.2
COc1ccccc1C(=O)N(Cc1c(-c2ccccc2F)noc1N1CCOCC1)CC1CCCO1 (configuration not stated),7.8,12.4
O=C(Cc1ccc([N+](=O)[O-])cc1)NCc1nnnn1-c1ccc(Cl)cc1,0.3,-2.4
c1cncc(C2CN(c3nccnc3N3CCCC3)C2)c1,1.5,0.5
CCOC(=O)C1(CCOC)CCN(C(=O)c2ccc(NC(C)=O)cc2)CC1,5.6,-1.0
NCc1cc2c(s1)CCSC2,-0.2,-2.2
O=C(Nc1ccc(N2CCOCC2)cc1)c1csc(-c2cc3ccccc3[nH]2)n1,1.8,-0.4
NC(=O)c1cnn2c1NC(c1ccc3c(c1)OCO3)CC2C(F)(F)F (configuration not stated),3.4,-4.1
CCc1c(C)sc2ncnc(-c3ccc(C(=O)N(C)C)cc3)c12,9.2,8.9
COCc1ccc(C(=O)N2CCCC(Nc3ccc(C(C)C)cc3)C2)s1 (configuration not stated),-1.2,-1.3
O=C(c1cccc(C(F)(F)F)c1)N1CCCc2cc(S(=O)(=O)N3CCCCC3)ccc21,0.4,3.5

Later entries.
structure,NPYLR7 agonist,NPYLR7 agonist max-min
COC(=O)c1ccc(Cn2c(-c3nnco3)cc3ccccc32)cc1,-1.2,-2.0
COc1cc(-c2nnc(SCCOc3ccc(F)cc3)o2)cc(OC)c1OC,-3.1,-4.8
CCS(=O)(=O)c1ccc2c(c1)N(c1ccccc1)C(=O)C(C)O2 (configuration not stated),7.9,2.2
COc1ccc2c(=O)c(Oc3ccccc3)c(C(F)(F)F)oc2c1,20.3,11.2
COc1cccc(Cn2nc(C(=O)N3CCCC(O)C3)c3c2CCN(C2CCSC2)C3)c1 (configuration not stated),18.7,7.5
COc1ccccc1OCc1nc(Cc2ccccc2)n[nH]1,0.5,-3.5
O=C1CSC(=S)N1N=Cc1cc(Br)c(O)c(Br)c1,67.3*,64.3*
C=CCc1cccc2cc(C(=O)Nc3ccc(C)cc3Br)c(=O)oc12,-1.9,-8.1
Cc1cc(C)cc(OCC(=O)NNC(=O)c2cccc(C)c2)c1,-2.3,-9.6
COc1ccccc1N1CCN(C(=O)c2cc(-c3ccc(C)cc3)nc3cc(C(C)(C)C)nn23)CC1,3.1,2.3
Cc1cccc(NC(=O)CNC(=O)CNC(C)C)c1,-4.2,-11.4
COc1ccc(/C=C/CN2CCC(C(=O)NC(c3ccc(Cl)cc3)c3cnccn3)CC2)cc1 (configuration not stated),14.3,11.7
COCc1nn2c(-c3ccccc3)c(C(C)=O)cnc2c1-c1ccccc1,-9.5,-17.5
COc1ccc(-c2cccc(-c3ccc(NC(=O)c4cccc(C#N)c4)cc3)n2)cc1,-6.3,-14.7
Fc1ccccc1OCCOc1ccc(Cl)c2cccnc12,2.1,10.3
O=C(c1cn(C2CCCCC2)nn1)N(CC1CC1)CC1CCCO1 (configuration not stated),4.3,0.6
Cc1cc(F)ccc1S(=O)(=O)N1CC[C@@](C)(O)[C@@H](CC(C)C)C1,-3.6,-5.8
COc1ccc2c(c1)cc1n2CCn2nnnc2-1,1.3,0.2
Cc1c([N+](=O)[O-])c(C(=O)N2CCSCC2)nn1C,7.8,5.1
CCC1=NOC(c2nc3sc(CC)cc3c(=O)[nH]2)C1 (configuration not stated),-1.1,0.6
O=C(CC1CCc2ccccc21)N1Cc2cnn(CCO)c2C1 (configuration not stated),3.4,2.5
CCCNc1nc(SC)nc(-c2ccccc2)c1C#N,-5.2,-14.0
Cc1nnsc1C(=O)N1CCCC(Nc2ccc(C(C)C)cc2)C1 (configuration not stated),-1.7,-1.0
CCC(CC)CN(CC)C(=O)c1cc(C)no1,10.6,9.1
Cc1cc(C)cc(N2CCC(N3CCN4CCNC(=O)C4C3)CC2)c1 (configuration not stated),9.3,5.4

As entered above.
NPYLR7 agonist max-min, CCCCCN1N=C(C)Cn2c1nc1c2c(=O)n(C)c(=O)n1C reads 5.1
NPYLR7 agonist, C=CCN(CC(=O)Nc1cc(C)no1)Cc1cccc(C#N)c1 reads -0.1
NPYLR7 agonist, O=C(CC1CCc2ccccc21)N1Cc2cnn(CCO)c2C1 (configuration not stated) reads 3.4
NPYLR7 agonist max-min, NCc1cc2c(s1)CCSC2 reads -2.2
NPYLR7 agonist max-min, COc1cccc(Cn2nc(C(=O)N3CCCC(O)C3)c3c2CCN(C2CCSC2)C3)c1 (configuration not stated) reads 7.5
NPYLR7 agonist, Cc1[nH]cnc1-c1nccn1Cc1cnn(Cc2ccccc2)c1 reads 1.3
NPYLR7 agonist, O=C(CN1C(=O)CCC1=O)Nc1nnc(-c2ccc(Cl)s2)o1 reads -3.4

Whole records as entered above. Screens in order: NPYLR7 agonist	NPYLR7 agonist max-min
Shown for Cc1c([N+](=O)[O-])c(C(=O)N2CCSCC2)nn1C → 7.8	5.1
Shown for COc1cc(-c2nnc(SCCOc3ccc(F)cc3)o2)cc(OC)c1OC → -3.1	-4.8
Shown for O=C1CSC(=S)N1N=Cc1cc(Br)c(O)c(Br)c1 → 67.3*	64.3*
Shown for O=C(CC1CCc2ccccc21)N1Cc2cnn(CCO)c2C1 (configuration not stated) → 3.4	2.5
Shown for COc1ccccc1N1CCN(C(=O)c2cc(-c3ccc(C)cc3)nc3cc(C(C)(C)C)nn23)CC1 → 3.1	2.3

(continued)
structure,NPYLR7 agonist,NPYLR7 agonist max-min
O=C(NCCc1ccc(F)cc1)c1ccc(-c2cc(-c3cccc(C(F)(F)F)c3)n[nH]2)cc1,2.6,1.6
CC(Cn1cncn1)NC(=O)Nc1cc(F)ccc1Cl (configuration not stated),5.5,2.2
Cc1ccc(S(=O)(=O)OCC(C)(C)C)cc1,4.6,3.3
CN(C)c1ccc(CN2CCC(C(=O)NC(c3ccc(-c4ccccc4)cc3)c3cnccn3)CC2)cc1 (configuration not stated),-3.2,-9.9
CC(C)C(=O)N1CCCC(OCc2cccc(OC(F)(F)F)c2)C1 (configuration not stated),-1.3,1.9
O=C(Nc1cccnc1)c1cc(-c2cccs2)n(C2CCS(=O)(=O)C2)n1 (configuration not stated),2.2,1.2
CCN(Cc1nc(C)no1)C(=O)c1cccc(-c2cccc(F)c2)c1,2.5,-6.8

Bioassay records as filed in PubChem BioAssay.
